# High-throughput results from PubChem.
# GLA inh pH 4.5: qHTS Assay for Inhibitors of Human alpha-Galactosidase at pH 4.5; Alpha-galactosidase A (Homo sapiens), P06280; purified enzyme, 4-MU-alpha-Gal fluorescence, pH 4.5; activity change, negative = inhibition, % at 105 µM; 230,000 tested, under 10 active; inconclusive = small, poorly fitted or top-dose-only inhibition, or a rising curve; inactive = flat fitted curve, though single readings scatter; no compound was filed as active;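 further: 0% = full activity with enzyme and -100% = basal without enzyme; dose as in the result columns while the protocol names 77 µM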
# Target sequence (P06280 whole entry, looked up): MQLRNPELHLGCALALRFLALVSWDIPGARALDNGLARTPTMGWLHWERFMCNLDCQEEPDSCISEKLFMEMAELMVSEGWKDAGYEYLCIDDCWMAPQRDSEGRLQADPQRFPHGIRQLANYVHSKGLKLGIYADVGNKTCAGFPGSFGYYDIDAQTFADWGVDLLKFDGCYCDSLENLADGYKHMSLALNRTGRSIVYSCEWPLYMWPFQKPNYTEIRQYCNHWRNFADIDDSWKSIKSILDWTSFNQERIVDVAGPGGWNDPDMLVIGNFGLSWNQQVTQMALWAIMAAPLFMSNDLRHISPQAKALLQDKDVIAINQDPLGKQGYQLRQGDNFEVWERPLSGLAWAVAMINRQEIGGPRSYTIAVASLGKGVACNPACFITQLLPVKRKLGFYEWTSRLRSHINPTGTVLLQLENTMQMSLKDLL
# Rango-impB inh: qHTS Assay for Inhibitors of Rango (Ran-regulated importin-beta cargo) - Importin beta complex formation; Importin subunit beta-1 (Homo sapiens), Q14974; Rango CFP/YFP FRET sensor + importin beta, 45 min; Potency, µM (doses to about 92.2 µM), for inactives: at the top dose inhibition of complex formation; 0.031% of 340,000 active; active = rising FRET ratio curve, often small or poorly fitted; inconclusive = mostly compound fluorescence or quenching in the first reads; inactive = flat curves in all reads;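 further: potency means the concentration at half of the fitted maximal effect; 0% = DMSO wells and 100% = buffer wells lacking importin beta; nearly all actives have a fitted effect of over 15% in size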
#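 FRET biosensor (snurportin 1 IBB flanked by EYFP and cerulean), 50 nM, with compound 5 min, then 0.125 microM importin beta in PBS, 1 mM DTT, 0.02% Tween-20, 0.1% BSA. CFP/YFP ratio read after 45 min at room temperature; pre-read flags interference.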
# Rango release inh: qHTS Assay for Inhibitors of RanGTP induced Rango (Ran-regulated importin-beta cargo) - Importin beta complex dissociation; Biochemical FRET Rango-importin beta, RanGTP-induced dissociation; Snurportin-1 (Homo sapiens) + GTP-binding nuclear protein Ran (Homo sapiens) + Importin …; 0.071% of 340,000 active; Potency, µM (highest dose often 46.1 µM), inactives show at the highest dose activity change, negative = inhibition; active means falling FRET ratio curve, often poorly fitted, with flat reads before Ran was added; inconclusive means other falling curves, or compound fluorescence or quenching; inactive means flat or rising ratio curve;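 further: potency means the concentration at half of the fitted maximal effect; % of control where 0% means no effect; nearly all actives have a fitted effect of over 45% in size; -100% = wells without RanGTP and RCC1; the record marks most hits as doubtful in a second field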
#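 Recombinant Rango FRET biosensor (EYFP–snurportin 1 IBB–cerulean CFP10) at 0.1 uM premixed with 0.25 uM importin beta in PBS, 1 mM DTT, 0.02% Tween-20, 0.1% BSA. Compound added 5 min; RanGTP-RCC1 (0.6 uM Ran, 2 mM GTP, 0.2 uM RCC1) then triggers release, read at 45 min.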
# miR-21 reporter: qHTS Assay for Modulators of miRNAs and/orActivators of miR-21; AID 2288, 2010; 340,000 tested, under 10 active; HeLa miR-21 FLuc reporter, luciferase, 48 h; Potency, µM (highest dose often 38.3 µM), for the others: at the highest dose reporter change, positive = more light; active = well fitted rising curve with a large enough effect; inconclusive = small, poorly fitted or top-dose-only effect; inactive = no such curve, though single readings can be large or run the other way;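 further: % of control where 0% means no effect; miR-21 action dims this reporter so a rising signal means less miR-21 action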
#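 Compounds were titrated across several concentrations (up to approximately 40 uM) and incubated 48 hours with HeLa miR-21-FLuc reporter cells (miR-21 target sequence downstream of FLuc, endogenous miR-21). Readout was firefly luciferase luminescence after lytic detection reagent.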
# An asterisk follows results filed as active; u = inconclusive; x = not tested or not shown. These rows are one share of the data; count on the stated rates, not on these rows.
GLA inh pH 4.5,Rango-impB inh,Rango release inh,miR-21 reporter,SMILES
x,-0.5%,6%,x,Cc1ccc(S(=O)(=O)CCC(=O)OCC(=O)c2ccc(F)cc2)cc1
-6,-0.3%,2%,-6%,COc1nccc(-c2ccc(F)cc2)c1C#N
-13,-4.6%,8%,-6%,COc1ccc(C2=NO[C@@H]3C(=O)N(c4c(C)cccc4C)C(=O)[C@H]23)cc1OC
x,0.6%,-7%,3%,C=CCn1cc(C(=O)NCCOC)c(=O)c2cc(S(=O)(=O)N3CCCCCC3)ccc21
x,3.8%,-3%,1%,O=C(c1ccnc(Cl)c1)N1CCCC(N2CCN(c3ccccc3F)CC2)C1 (centres undefined)
x,-1.8%,5%,-12%,CC1=CCC2C(=O)N(c3ccc(C(=O)Nc4ccccc4Cl)cc3)C(=O)C2C1 (centres undefined)
2,u,3%,-3%,C#CCOC(=O)C1C2C=CC(C2)C1C(=O)O (centres undefined)
-4,-2.1%,13%,-16%,Cn1c(=O)c2c(O)c(Cc3ccccc3)c(=O)[nH]c2n(C)c1=O
x,0.1%,21%,4%,COCCNC(=O)Cn1nc(-c2ccccc2F)ccc1=O
-3,-1.0%,12%,-6%,CSc1nnc(CCCCCNC(=O)OC(C)(C)C)o1
x,0.8%,-12%,2%,Cc1cc(NC(=O)COc2ccccc2C)ccc1NC(=O)c1ccco1
x,0.6%,-8%,-43%,COc1ccc(NC(=O)c2cc3ccccc3[nH]2)cc1
-1,-2.7%,11%,-15%,COC(=O)c1c(C)[nH]c(C=Nc2ccc(OC)cc2)c1C
-7,-5.7%,26%,4%,O=C(CN1C(=O)/C(=C/c2ccccc2F)Sc2ccccc21)N1CCN(c2ccccn2)CC1
x,-1.2%,16%,-3%,C=CCn1c(=O)c(C(=O)NC(C)c2ccccc2)c(O)c2ccccc21 (centres undefined)
3,-0.5%,24%,-5%,Cc1nc2cc(NC(=O)Nc3cccc(F)c3)ccc2n1C
x,3.8%,0%,18%,CN(CC(=O)Nc1ccccc1Br)C(=O)c1ccc(-c2ccc(Cl)cc2)o1
x,1.6%,-10%,-2%,COc1ccccc1NC(=O)CSc1nnc(CC(=O)Nc2ccccc2C)n1C
3,0.6%,17%,-16%,O=C(NC12CC3CC(CC(C3)C1)C2)N1CCN(c2ccccn2)CC1
-22,u,u,-2%,CC1CN(c2nc3ccccc3nc2C(C#N)C(=O)NCc2ccc3c(c2)OCO3)CC(C)O1 (centres undefined)

# Filtered by structure, the compounds so far with a cyano group (two)
GLA inh pH 4.5,Rango-impB inh,Rango release inh,miR-21 reporter,SMILES
-6,-0.3%,2%,-6%,COc1nccc(-c2ccc(F)cc2)c1C#N
-22,u,u,-2%,CC1CN(c2nc3ccccc3nc2C(C#N)C(=O)NCc2ccc3c(c2)OCO3)CC(C)O1 (centres undefined)

# Some of the entries so far, as labelled records.
Cn1c(=O)c2c(O)c(Cc3ccccc3)c(=O)[nH]c2n(C)c1=O
  GLA inh pH 4.5: -4
  Rango-impB inh: -2.1%
  Rango release inh: 13%
  miR-21 reporter: -16%
COCCNC(=O)Cn1nc(-c2ccccc2F)ccc1=O
  GLA inh pH 4.5: x
  Rango-impB inh: 0.1%
  Rango release inh: 21%
  miR-21 reporter: 4%
CSc1nnc(CCCCCNC(=O)OC(C)(C)C)o1
  GLA inh pH 4.5: -3
  Rango-impB inh: -1.0%
  Rango release inh: 12%
  miR-21 reporter: -6%

# Next part.
GLA inh pH 4.5,Rango-impB inh,Rango release inh,miR-21 reporter,SMILES
8,-3.4%,-14%,-4%,COC(=O)Nc1ccc(C)c(NC(=O)OC)c1
-6,5.5%,-10%,-6%,CCOC(=O)Cn1c(C)c(Br)c(=O)c2cccc(C)c21
x,-1.5%,-6%,-2%,COc1ccc(CN2CCNC(=O)C2CC(=O)N(C)Cc2nccs2)cc1OC (centres undefined)
6,0.9%,-8%,-24%,CCc1c(C)nc2c(OC)cccc2c1Cl
-4,-1.2%,0%,-5%,CC(NC(=O)c1ccc(Br)cc1)C(=O)NC1=NCCS1 (centres undefined)
-4,0.4%,3%,-4%,Cc1cccc(NC(=O)CCN2C(=O)C3C4C=CC(C4)C3C2=O)n1 (centres undefined)
-12,1.4%,6%,8%,CCCOC(=O)c1ccc(OCC(O)Cn2c(C)nc3ccccc32)cc1 (centres undefined)
5,-0.1%,-16%,0%,CC(=O)Nc1ccc(NC(=O)c2ccc(Cl)nc2)cc1
1,-0.6%,-1%,-7%,O=C(NCCc1ccncc1)Nc1cccc(Cl)c1
-15,-3.6%,-5%,13%,Cc1cc(Cl)c2c(c1)[C@]1(C(=O)N2)[C@@H]2C(=O)N(Cc3ccccc3)C(=O)[C@@H]2[C@@H]2CCCN21
-2,-3.2%,7%,-3%,O=S(=O)(NCc1ccccc1)NCc1ccccc1F
0,3.0%,6%,-12%,C/C(=N\NC(=O)c1cccc(Br)c1)c1ccc(Br)cc1
-8,-0.9%,0%,-13%,COc1ccc(CCNc2ccc(C(=O)O)cc2[N+](=O)[O-])cc1OC
-1,-0.1%,4%,-6%,Cc1[nH]c(=O)[nH]c(=O)c1S(=O)(=O)N1CCOCC1
1,2.2%,-6%,5%,CCOC(=O)CSc1nnc(CNC(=O)c2cccs2)n1CCc1ccccc1
-5,0.1%,4%,-1%,CC1CCCC(NC(=O)CSc2nccn2C)C1C (centres undefined)
-13,-2.3%,2%,-55%,N#CC(=C1CCCC1)c1nc(-c2ccccc2O)cs1
-4,-3.4%,-7%,-9%,CCOc1ccc(C(=O)NC(=S)Nc2ccc(N3CCCCC3)cc2)cc1[N+](=O)[O-]
-2,-1.1%,1%,-6%,CCCCC(=O)N(c1ccc(OC)cc1)C1C=CS(=O)(=O)C1 (centres undefined)
1,-0.5%,16%,-10%,COc1cc(S(=O)(=O)N2CCOCC2)ccc1NC(=O)c1cc2c(s1)CCC2
-6,0.3%,6%,-6%,NNC(=O)[C@H](Cc1ccccc1)NC(=O)Nc1ccc2c(c1)OCCO2
-10,-0.1%,25%,-13%,Cc1cc(Cl)cc(Br)c1OCCCCn1cncn1
x,-3.1%,5%,6%,CCCCC(=O)Nc1ccccc1N1CCN(c2ccc(F)cc2)CC1
4,-2.6%,-2%,-1%,C/C(=N\N(c1ccccc1)c1ccccc1)c1ccco1
x,2.6%,-5%,x,O=S1(=O)c2ccc(Br)cc2N2CCC[C@H]2CN1Cc1ccccc1
7,-2.1%,0%,-14%,O=C(COC(=O)C1CC(O)CN1S(=O)(=O)c1ccc(Cl)cc1)c1ccccc1Cl (centres undefined)
x,-1.1%,-4%,x,O=C(c1cccc(S(=O)(=O)N2CCCCC2)c1)N(CCc1ccccc1)Cc1ccccc1
-4,-1.4%,13%,3%,O=S(=O)(c1cccc(NC(=S)N2CCN(c3cccc(Cl)c3)CC2)c1)C(F)F
-9,-0.8%,1%,-3%,CC1(C)NC(=O)N(CC(=O)OCc2cc(=O)n3cc(Br)ccc3n2)C1=O
-4,-5.0%,-10%,-34%,CC1CC(=O)NN=C1c1ccc(NCCO)c([N+](=O)[O-])c1 (centres undefined)
x,3.3%,-14%,11%,O=C(Nc1ccc(S(=O)(=O)NCc2ccco2)cc1)c1ccc(F)cc1
-10,0.5%,17%,9%,CCCC1=C(C(=O)OCC)C(c2sccc2C)n2ncnc2N1 (centres undefined)
x,0.0%,18%,x,CC(=O)N1CCN(S(=O)(=O)c2cccc(C(=O)OCc3cccc(F)c3)c2)CC1
x,-0.6%,-6%,-2%,CN(C)C(CNC(=O)c1ccc2ccccc2n1)c1ccccc1 (centres undefined)
8,-5.8%,-9%,-8%,COCCn1nnnc1C(c1ccc(C)cc1)N1CCN(Cc2ccc3c(c2)OCO3)CC1 (centres undefined)
3,1.2%,-11%,-58%,O=C(Nc1nc(SCc2ccc(F)cc2)ns1)c1ccco1
-1,-0.3%,1%,-2%,CCOC(=O)C(=O)Nc1nccs1
x,1.4%,15%,x,CC1CCN(C(=O)CN2C(=O)NC3(CCCc4ccccc43)C2=O)CC1 (centres undefined)
-7,-0.6%,0%,-1%,CCOC(=O)c1c(NC(=O)Nc2ccc(Cl)cc2)sc(C)c1C
2,-0.1%,-4%,-7%,CCOc1ccccc1N(CC(=O)NC1CCCC1)C(=O)CCC(=O)Nc1cc(C)on1
1,-1.1%,1%,-5%,CCC(C(=O)NC1CCCC1)N(C(=O)Cn1nnc(-c2ccc(C)o2)n1)C(C)(C)C (centres undefined)
10,0.0%,13%,5%,COc1ccc(C(=O)Nn2c(SCc3ccc([N+](=O)[O-])cc3)nc3ccccc3c2=O)cc1
-7,0.3%,15%,5%,CCN(CC)C(=O)CC(c1ccc(N(C)C)cc1)c1c(OC)cc(OC)c2c(-c3ccccc3)cc(=O)oc12 (centres undefined)
5,0.8%,-17%,4%,O=C(NCc1ccco1)c1ccc(CS(=O)(=O)c2cccc(C(F)(F)F)c2)o1
x,-0.3%,-19%,x,O=[N+]([O-])c1ccc(Nc2nc(N3CCOCC3)nc(N3CCOCC3)n2)cc1
-8,-0.3%,-3%,0%,O=[N+]([O-])c1ccn(-c2nc(-c3cccs3)cc(C(F)(F)F)n2)n1
0,-1.5%,16%,-2%,O=C(Nc1ccc(N2CCCC2)cc1)C(c1ccccc1)c1ccccc1
10,2.1%,2%,1%,COc1ccc(-c2cc(=O)oc3c(C)c(OCc4nn[nH]n4)ccc23)cc1
7,-4.0%,7%,-2%,Cc1nnc(SCC(=O)Nc2ccccc2)n1CCc1ccccc1
x,3.0%,-5%,-5%,Cn1c(SCC(=O)Nc2ccccc2F)nnc1C1CCCCC1
-4,u,u,-1%,COC(=O)C1=COC(C)C2CN3CCc4c([nH]c5cc(OC)c(OC)cc45)C3CC12 (centres undefined)
7,-3.5%,u,1%,COc1ccc(-n2c(SCC(=O)Nc3cc(C)on3)nc3c([nH]c4ccccc43)c2=O)cc1
x,-4.3%,2%,4%,COc1ccc(C2CC(=O)NC(=O)C2)cc1
1,5.2%,6%,-45%,Cc1nc(OCC(C)C)c2sc3nc4c(cc3c2n1)COC(C)(C)C4
9,1.7%,-10%,-1%,CCn1c(C)c(C(C)=O)c(N2CCN(c3cccc(Cl)c3)CC2)nc1=S
-13,-3.8%,-8%,-28%,Fc1ccc(-c2nnn(Cc3nc4ccccc4s3)n2)cc1
-26,-1.3%,22%,10%,COCCOc1cc(NC(=O)c2sccc2Oc2ccc([N+](=O)[O-])cc2F)c(Cl)cc1Cl
-8,u,-23%,-10%,COc1ccc(C(=O)ON=C2CCN(c3ccc([N+](=O)[O-])cc3)CC2)cc1
1,0.1%,1%,0%,CCOC(=O)C1(Cc2ccc(OC)cc2)CCN(C(=O)CCn2ccc(C)n2)CC1
7,2.5%,-6%,5%,Cc1ccc(S(=O)(=O)N2CCN(C(=O)CN3CCOCC3)C2c2ccccc2)cc1 (centres undefined)

# Further records:
GLA inh pH 4.5,Rango-impB inh,Rango release inh,miR-21 reporter,SMILES
x,-4.4%,-13%,x,C=CCCC(=O)N1C[C@H]2CON(C)[C@H]2C[C@H]1c1cccc(Nc2ccccc2)c1
-14,-3.1%,-1%,16%,O=C(N/N=C/C1CC=CCC1)c1cc(-c2cccnc2)nc2ccccc12 (centres undefined)
x,6.4%,-11%,x,CN(CC(=O)Nc1ccc(Cl)c(C(F)(F)F)c1)C(=O)COC(=O)C1CC2CCCC(C1)C2=O (centres undefined)
x,-3.7%,12%,-1%,O=C1CNC(=O)N1
-4,-2.0%,1%,-1%,CCOC(=O)C1CCCN(C(=O)C2c3ccccc3Oc3ccccc32)C1 (centres undefined)
